# Bioassay records from PubChem.
# Mtb growth: M. tuberculosis H37Rv growth inhibitors, H37Rv strain (AID 1626); M. tuberculosis H37Rv growth inhibition; higher % means a stronger effect; inhibition, % at 10 µM, or IC50 in µM where a hit was titrated; 0.95% of 220,000 active;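 active = confirmed in a dose series; inconclusive = inhibition above 80% but not taken into the dose series; inactive = below 80% or under 30% at every dose of the series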;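 note: bacteria incubated seven days before Alamar blue readout; 0% = bacteria only wells and 100% = bacteria with antibiotic wells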
# YopH inh: inhibitors of Yersinia enterocolitica YopH tyrosine phosphatase | AID 898 | inhibition, %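 (about 10 µM by stock and volumes)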 | 0.16% of 140,000 active | fluorescence Ex485/Em525;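 active = inhibition of 50% or more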;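 note: controls were vehicle for no effect and minimum signal wells for full effect; inactives centre near -20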
# RecA splice inh: Mtb RecA intein splicing inhibition | 0.75% of 290,000 active | inhibition, %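 (about 9 µM by stock and volumes)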 | P9WHJ3 | cell-free RecA intein splicing, fluorescence | AID 2221; in the data active = inhibition above about 30%; inconclusive = no clear call, values can overlap the other calls;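 note: 0% = vehicle wells and 100% = reference inhibitor control wells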
# Target sequence (P9WHJ3 whole entry, looked up, canonical isoform): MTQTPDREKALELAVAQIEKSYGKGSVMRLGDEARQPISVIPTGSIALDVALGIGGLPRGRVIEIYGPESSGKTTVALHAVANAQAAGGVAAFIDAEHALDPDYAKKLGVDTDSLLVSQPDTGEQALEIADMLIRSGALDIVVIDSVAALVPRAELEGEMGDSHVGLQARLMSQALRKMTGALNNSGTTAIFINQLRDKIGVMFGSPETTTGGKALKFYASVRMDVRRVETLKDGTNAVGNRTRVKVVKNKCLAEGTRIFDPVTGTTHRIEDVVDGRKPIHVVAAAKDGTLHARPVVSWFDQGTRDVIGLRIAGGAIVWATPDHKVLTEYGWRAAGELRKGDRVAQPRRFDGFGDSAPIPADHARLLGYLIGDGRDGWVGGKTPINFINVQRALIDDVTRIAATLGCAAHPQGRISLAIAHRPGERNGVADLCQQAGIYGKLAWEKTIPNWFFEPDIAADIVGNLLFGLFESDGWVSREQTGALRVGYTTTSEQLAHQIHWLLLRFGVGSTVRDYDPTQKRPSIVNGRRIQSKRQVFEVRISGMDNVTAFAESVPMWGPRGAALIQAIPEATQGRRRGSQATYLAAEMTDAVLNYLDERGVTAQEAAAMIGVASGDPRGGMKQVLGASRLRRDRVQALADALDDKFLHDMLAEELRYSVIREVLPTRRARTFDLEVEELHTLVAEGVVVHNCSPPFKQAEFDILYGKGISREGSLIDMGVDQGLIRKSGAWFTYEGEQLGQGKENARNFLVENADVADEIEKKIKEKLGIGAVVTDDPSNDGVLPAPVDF
# Arbovirus inh: antivirals against arbovirus infection | arbovirus infection cell-based antiviral screen | inhibition, % at 10 µM | 0.37% of 200,000 active;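 active = inhibition from about 30%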;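 note: bluetongue infection of BSR cells; cell survival read as ATP light after 72 h; 0% = infected wells without compound and 100% = uninfected wells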
# Mtb bLac sens: beta-lactam sensitization of Mtb H37Rv. M. tuberculosis H37Rv growth with meropenem, percent inhibition; hits of this screen are not shown here. inhibition, % at 25 µM. 0.27% of 330,000 active. AID 434955;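 active = about 74% or more and at least 40 points above the plate without the antibiotic, then above 30% in a dose series; inconclusive = first-round hits that could not be retested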;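 note: growth measured after seven days incubation then overnight dye step; 0% = bacteria only wells and 100% = bacteria with antibiotic; twin plates without the antibiotic show which effects depend on it; some results filed as inactive read as strong as hits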
# Arbovirus inh repeat: further read-out of Arbovirus inh, marked with its call; inhibition, %; measured here: 10K subset replicate screen; many hits read low in the repeat;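 first of two repeat runs on a subset; 0% = infected and 100% = uninfected wells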
# An asterisk follows results filed as active; ? = inconclusive; . = not tested or not shown.
SMILES,Mtb growth,YopH inh,RecA splice inh,Arbovirus inh,Mtb bLac sens,others
CN(Cc1ccccc1)C(=O)c1cc(-c2ccc(Br)cc2)on1,10%,16,3.4,4,6,
Cc1ccc(NC(=O)CCn2cc(C(F)(F)F)ccc2=O)cc1,2%,.,0.6,.,-2,
Cc1ccc(NC(NC(=O)OCCn2c([N+](=O)[O-])cnc2C)C(Cl)(Cl)Cl)cc1 (stereo not drawn),39%,-24,0.5,7,-5,
Cc1ccccc1Nc1c(-c2ccc(N3CCOCC3)cc2)nc2ncccn12,10%,.,-15,-3,6,
c1ccc(Cn2nnc3c(N4CCN(Cc5ccc6c(c5)OCO6)CC4)ncnc32)cc1,19%,-35,8.5,0,71,
Cc1ccc(N(CC(=O)NCc2ccncc2)S(C)(=O)=O)cc1,-14%,-19,1.1,-3,-16,
COc1ccc(-c2cc(C)no2)cc1S(=O)(=O)NCCCN1CCN(c2ccccc2)CC1,.,.,0.1,.,6,
CC(=O)Nc1ccc(NC(=O)C(C)OC(=O)c2ccc3[nH]c(C)c(C)c3c2)cc1 (stereo not drawn),.,.,-0.9,.,21,
O=C(CCCOc1ccccc1)Nc1nnc(C2CCCO2)s1 (stereo not drawn),-1%,-40,1.3,9,-6,Arbovirus inh repeat=4
COc1ccccc1N/C(N)=N/c1nc(C(F)(F)F)cc(=O)[nH]1,12%,.,-1.7,4,-4,
CCO[C@@H]1OC(C(=O)Nc2ccccc2)=C[C@H](c2ccccc2)[C@H]1CCCO,0%,.,0.3,-7,9,
CCOC(=O)/C=C1\SCC(=O)N1CC(=O)NCc1cccc(Cl)c1,-1%,-6,1.2,4,-8,
O=C(Oc1ccccc1N1CCOCC1)c1ccccc1,-8%,.,-0.1,.,-8,
CC(=O)Nc1ccc(C(=O)NC2CCSc3ccccc32)cc1 (stereo not drawn),.,.,-0.6,.,-11,
Cn1c(=O)c2ncn(CC(=O)NCCOCc3ccccc3Cl)c2n(C)c1=O,3%,-10,-2.8,8,4,
CCOC(=O)c1c(C)[nH]c(C)c1S(=O)(=O)N(C)CC(=O)Nc1cccc(F)c1,.,.,0.6,.,0,
Cc1ccc(NS(=O)(=O)c2cccc(C(=O)N3CCOCC3)c2)cc1,-21%,-18,-0.9,3,-6,
Cc1cc(Cn2ccnc2)c(C)c([N+](=O)[O-])c1Cn1ccnc1,.,.,0.8,.,-1,
CCOC(=O)Cn1cc([N+](=O)[O-])c(OC)n1,-3%,-4,0.0,0,-4,
CCC(c1nnnn1Cc1cccs1)N1CCN(C(=O)c2ccco2)CC1 (stereo not drawn),-5%,.,11,-1,2,
O=C1NC(=O)C2(Cc3c(nc4ccccn4c3=O)N3CCCCCC32)C(=O)N1Cc1ccccc1 (stereo not drawn),9%,-8,.,1,8,
O=C(CN1CCN(Cc2ccccc2)CC1)N1CCN(c2ccccc2)CC1,-3%,.,0.7,.,-3,
CC(=O)Nc1ccc(S(=O)(=O)NC(CC(=O)NCCc2ccccc2)C(C)C)cc1 (stereo not drawn),-4%,-7,-1.7,0,9,
CCOC(=O)N1CCN(c2c(NCCCN(CC)Cc3ccccc3)c(=O)c2=O)CC1,-3%,-38,-0.3,-5,.,
O=C(Nc1ccccc1F)Nc1cccnc1Cl,.,.,0.4,.,-7,
CCN(CC)S(=O)(=O)c1ccc(/C(O)=C2/C(=O)C(=O)N(CCOC)C2c2ccccc2)cc1 (stereo not drawn),-13%,-16,-0.8,12,-11,
C=CCNC(=S)Nc1ccc(C)cc1[N+](=O)[O-],1%,.,0.3,1,5,
CCOC(=O)Cc1nc2cc(Cl)ccc2o1,9%,.,-0.6,-3,90,
CC1CC(C)CN(CCCSc2ccccc2)C1 (stereo not drawn),2%,13,-2.1,1,5,
Cc1cccc(C)c1OCCOCCN1CCN(C)CC1,-4%,-36,1.1,-14,2,

# 18 compounds out of the list, arranged by length of the SMILES, low to high:
SMILES,Mtb growth,YopH inh,RecA splice inh,Arbovirus inh,Mtb bLac sens,others
O=C(Nc1ccccc1F)Nc1cccnc1Cl,.,.,0.4,.,-7,
Cc1cccc(C)c1OCCOCCN1CCN(C)CC1,-4%,-36,1.1,-14,2,
O=C(Oc1ccccc1N1CCOCC1)c1ccccc1,-8%,.,-0.1,.,-8,
O=C(CCCOc1ccccc1)Nc1nnc(C2CCCO2)s1 (stereo not drawn),-1%,-40,1.3,9,-6,Arbovirus inh repeat=4
CC(=O)Nc1ccc(C(=O)NC2CCSc3ccccc32)cc1 (stereo not drawn),.,.,-0.6,.,-11,
Cc1ccc(NC(=O)CCn2cc(C(F)(F)F)ccc2=O)cc1,2%,.,0.6,.,-2,
CN(Cc1ccccc1)C(=O)c1cc(-c2ccc(Br)cc2)on1,10%,16,3.4,4,6,
CCC(c1nnnn1Cc1cccs1)N1CCN(C(=O)c2ccco2)CC1 (stereo not drawn),-5%,.,11,-1,2,
O=C(CN1CCN(Cc2ccccc2)CC1)N1CCN(c2ccccc2)CC1,-3%,.,0.7,.,-3,
Cc1cc(Cn2ccnc2)c(C)c([N+](=O)[O-])c1Cn1ccnc1,.,.,0.8,.,-1,
Cn1c(=O)c2ncn(CC(=O)NCCOCc3ccccc3Cl)c2n(C)c1=O,3%,-10,-2.8,8,4,
CCOC(=O)N1CCN(c2c(NCCCN(CC)Cc3ccccc3)c(=O)c2=O)CC1,-3%,-38,-0.3,-5,.,
c1ccc(Cn2nnc3c(N4CCN(Cc5ccc6c(c5)OCO6)CC4)ncnc32)cc1,19%,-35,8.5,0,71,
COc1ccc(-c2cc(C)no2)cc1S(=O)(=O)NCCCN1CCN(c2ccccc2)CC1,.,.,0.1,.,6,
CC(=O)Nc1ccc(NC(=O)C(C)OC(=O)c2ccc3[nH]c(C)c(C)c3c2)cc1 (stereo not drawn),.,.,-0.9,.,21,
Cc1ccc(NC(NC(=O)OCCn2c([N+](=O)[O-])cnc2C)C(Cl)(Cl)Cl)cc1 (stereo not drawn),39%,-24,0.5,7,-5,
O=C1NC(=O)C2(Cc3c(nc4ccccn4c3=O)N3CCCCCC32)C(=O)N1Cc1ccccc1 (stereo not drawn),9%,-8,.,1,8,
CCN(CC)S(=O)(=O)c1ccc(/C(O)=C2/C(=O)C(=O)N(CCOC)C2c2ccccc2)cc1 (stereo not drawn),-13%,-16,-0.8,12,-11,

# The results go on.
SMILES,Mtb growth,YopH inh,RecA splice inh,Arbovirus inh,Mtb bLac sens,others
CCOC(=O)C1CCN(C(=O)CCCNC(=O)Cn2cnc3sc(C)c(C)c3c2=O)CC1,.,.,0.5,.,-1,
Cc1ccc(CNC(=O)COC(=O)c2cnc(C)cn2)cc1,0%,.,1.0,5,8,
COC(=O)c1cc(CN2C(=O)c3ccccc3C2=O)c(O)c([N+](=O)[O-])c1,.,.,-2.2,.,4,
CC(=O)Oc1ccc2nc(CN3C(=O)c4ccc([N+](=O)[O-])cc4C3=O)oc(=O)c2c1,2%,.,-1.8,-1,-1,
CCCCCc1nnc(NC(=O)Cc2cccs2)s1,-11%,47,1.4,8,1,
COc1ccc(-c2ccc(=O)n(Cc3c(F)cccc3Cl)n2)cc1,.,.,3.3,.,99,
CCc1noc(C)c1C(=O)N1CCCC1,-1%,-25,1.9,-5,-8,
COc1c2occc2c(OC)c2c(=O)cc(C)oc12,-11%,-49,-1.9,-1,1,
CN(C)CCNC(C(=O)Nc1cccc(C(F)(F)F)c1)c1ccccc1 (stereo not drawn),-9%,.,15,-3,-5,
CCOC(=O)c1c(C)[nH]c(C)c1S(=O)(=O)NCCc1ccco1,.,.,2.5,.,2,
Cc1csc(Sc2ccc(C(=O)OCC(=O)Nc3ccc(F)cc3[N+](=O)[O-])cc2[N+](=O)[O-])n1,-11%,-9,-0.1,-3,0,
CCCN1Cc2cccc(C(=O)NCc3ccccc3)c2C1=O,10%,-35,-0.8,-6,4,
CC(=O)N1CC(C)Sc2ccc(S(=O)(=O)NCc3ccc(F)cc3)cc21 (stereo not drawn),.,.,0.1,.,19,
C=CCSc1nnc2n(CCc3ccccc3)c(=O)c3c4c(sc3n12)COC(C)(C)C4,-1%,-7,-0.2,0,8,
CCCCOc1ccc(C(=O)NN2CCOCC2)cc1,.,.,1.4,.,-6,
N#C/C(=C/c1ccc(N2CCOCC2)o1)c1ccc(Br)cc1,12%,-7,-3.2,-21,93,
Cc1cc(C(=O)OCC(=O)c2cccc([N+](=O)[O-])c2)c2ccccc2n1,-3%,-24,0.5,1,-3,
CC(=O)Nc1ccc(NC(=O)CCS(=O)(=O)c2ccc3c(c2)oc(=O)n3C)cc1,.,.,0.8,.,7,
O=C(CCNC(=O)C1CCN(S(=O)(=O)c2ccc(F)cc2)CC1)Nc1ccccc1,.,.,1.2,.,-4,
CN(C)S(=O)(=O)c1ccc2c(c1)nc(CCC(=O)Nc1ccc(N3CCOCC3)cc1)n2C,0%,.,-3.5,8,-12,
COc1cc(C=O)ccc1Oc1nc(Nc2ccc(F)cc2F)nc(N2CCOCC2)n1,11%,.,3.4,15,3,
O=S1(=O)CCN(OCc2ccc(F)cc2Cl)CC1,-5%,.,.,6,2,
CCOC(=O)C1CCCN(C(=O)Cn2ncc3c([nH]c4ccc(C)cc43)c2=O)C1 (stereo not drawn),.,.,-0.5,.,-6,
Cc1nc(Nc2nc3ccccc3o2)nc(C)c1C(=O)Nc1ccc(F)cc1,-9%,.,-2.5,2,26,
O=C(Cn1nc(-c2ccccc2)ccc1=O)NCCN1CCN(c2cccc(Cl)c2)CC1,0%,-60,1.3,-4,-2,
NC(=O)C1(N2CCCCC2)CCN(C(=O)CSc2nc3ccccc3s2)CC1,.,-21,-4.7,6,-3,
CCCCCNC(=O)CC1Nc2c3ccccc3nc(=S)n2C1=O (stereo not drawn),-12%,-20,-1.2,4,-4,
CC(=O)Nc1ccc2ccc3cccc4ccc1c2c34,0%,-35,-3.3,-12,8,
COc1ccc2c(c1OC)C(=O)OC2Nn1cncn1 (stereo not drawn),-5%,-26,-2.4,-4,?,
O=C(NC(=S)Nc1cccc2cc(O)ccc12)c1ccccc1Br,.,.,-5.8,.,-6,

# 3 entries out of the list, ordered by SMILES length, highest first.
SMILES,Mtb growth,YopH inh,RecA splice inh,Arbovirus inh,Mtb bLac sens,others
Cc1nc(Nc2nc3ccccc3o2)nc(C)c1C(=O)Nc1ccc(F)cc1,-9%,.,-2.5,2,26,
Cc1ccc(N(CC(=O)NCc2ccncc2)S(C)(=O)=O)cc1,-14%,-19,1.1,-3,-16,
O=S1(=O)CCN(OCc2ccc(F)cc2Cl)CC1,-5%,.,.,6,2,

# New compounds follow
SMILES,Mtb growth,YopH inh,RecA splice inh,Arbovirus inh,Mtb bLac sens,others
COc1ccccc1-c1noc(-c2ccccc2)n1,.,6,5.7,-3,4,
CC(=O)NC(Cc1ccccc1)C(=O)NC1CCN(C(=O)c2ccc([N+](=O)[O-])cc2)CC1 (stereo not drawn),-6%,-22,0.5,-3,-3,
Cc1ccc(N(C(=O)C(F)(F)F)C(C(=O)NC2CCCCC2)c2ccncc2)cc1C (stereo not drawn),0%,-8,-0.7,-4,-4,
Cc1occc1C(=O)N/N=C/c1ccc[nH]1,.,.,-0.5,.,-11,
Cc1c2ccccc2nc2c(F)c(NCCO)c(F)c(F)c12,11%,-8,-31,1,-3,
COCCCNC(=O)CSc1nc2cc(S(=O)(=O)N3CCCCC3)ccc2o1,.,.,-2.8,.,-5,
COc1ccc(Cn2c(-c3ccc(OC)c(O)c3)nc3ccccc32)cc1O,-6%,.,-0.7,-13,4,
Cc1n[nH]c(=O)nc1NC1CCCCC1,0%,-16,-0.7,-2,-19,
Cc1cc(NC(=O)CSc2n[nH]c(N)n2)no1,3%,.,0.5,-1,4,
CN(C)S(=O)(=O)c1ccc(S(=O)(=O)Nc2ccc3c(c2)oc2ccccc23)cc1,9%,6,4.8,-4,6,
COc1cccc(CNC(=O)CCNC(=O)C2CCN(S(=O)(=O)c3ccccc3)CC2)c1,.,.,0.6,.,-8,
COc1cc2nc(N3CCN(C(=O)[C@@H]4CCCO4)CC3)nc(N)c2cc1OC,.,.,1.0,.,8,
FC(F)Sc1ccc(NC(=S)NC(c2ccccc2)c2ccccc2)cc1,?,.,12,-40,54,
CSCCC(=O)Nc1nc(-c2ccccn2)cs1,?,.,.,10,.,

# An excerpt, so the mix of outcomes need not match the whole.
